Source: PubChem (National Center for Advancing Translational Sciences (NCATS))
VDR inh: blocks the human vitamin D receptor. AID 504847. VDR-SRC2-3 peptide fluorescence polarization, 2 h. Potency, µM, without a hit: max response, negative = inhibition, most hits filed as inhibitors. P11473. 400,000 compounds, 0.93% hits; active = well fitted inhibition curve with a large enough effect; inconclusive = small, poorly fitted or top-dose-only effect, or another doubt; inactive = no such curve, though single readings can be large or run the other way; note: series mostly up to about 120 µM
Target sequence (P11473 whole entry, looked up): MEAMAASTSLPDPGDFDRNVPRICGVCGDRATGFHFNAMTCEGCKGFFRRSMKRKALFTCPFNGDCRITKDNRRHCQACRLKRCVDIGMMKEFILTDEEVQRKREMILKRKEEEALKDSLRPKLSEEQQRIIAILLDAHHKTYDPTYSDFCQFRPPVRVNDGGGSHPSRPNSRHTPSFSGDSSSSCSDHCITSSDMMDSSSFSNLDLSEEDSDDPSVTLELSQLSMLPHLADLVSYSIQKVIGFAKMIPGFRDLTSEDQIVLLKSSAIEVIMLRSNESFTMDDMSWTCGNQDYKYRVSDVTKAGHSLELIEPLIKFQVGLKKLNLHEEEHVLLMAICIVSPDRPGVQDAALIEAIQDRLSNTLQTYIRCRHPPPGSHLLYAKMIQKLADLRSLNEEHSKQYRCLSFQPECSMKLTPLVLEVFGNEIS
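Fluorescence polarization assay measuring small-molecule disruption of VDR binding to the coregulator peptide SRC2-3. Compounds were pin-transferred (23 nl) into the reagent mix and incubated 2 h at room temperature before reading.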
Numbers without * were called inactive; ? = inconclusive; & = joins results of further samples; [ ] = dose if it differs, or a comment. % is set by controls: 0 for no effect and ±100 for the full control effect; potency is the fitted concentration of half-maximal effect. An excerpt (hit frequency here may not be typical).

CCN1C[C@]2(COC)CC[C@H](O)[C@@]34C5C[C@H]6[C@H](O)C5[C@](O)(C[C@H]6OC)[C@@H]([C@H](OC)C23)[C@@H]14 (stereo not given in full)
- VDR inh = -13%

CC(C)NC[C@@H](O)COc1cccc2[nH]ccc12
- VDR inh = -3%

CCc1c(C)nc(N)nc1N1N=C1SC(C(C)=O)C(C)=O
- VDR inh = 22µM*

COC(=O)c1ccccc1-n1c(C)nc2ccccc2c1=O
- VDR inh = 4%

CCc1ccc(OCC(=O)N2CCN(CC(=O)Nc3ccccc3Cl)CC2)cc1
- VDR inh = 0%

CC(=O)OCC[N+](C)(C)C
- VDR inh = -11%&-19%&8%&-3%&4%

Cc1nn(Cc2ccccc2)c(Cl)c1C(=O)OCC(=O)N1CCCC1
- VDR inh = -13%

COc1ccc(N2C(=O)CC(=O)NC2=O)cc1
- VDR inh = 1%

CCN(CC)CC(=O)Nc1ccc(Cl)cc1C(=O)c1ccccc1
- VDR inh = 7%

C=C(C=O)CC1CC(O)[C@]2(C)OC3C[C@@H]4OC5C[C@]6(C)O[C@]7(C)CCC8OC9C[C@]%10(C)OC(/C(C)=C\CO)C(O)CC%10OC9CC(C)C8OC7CC6O[C@]5(C)C/C=C\C4OC3CC2O1 (stereo not given in full)
- VDR inh = ?

Nc1ccc([As](=O)(O)O)cc1
- VDR inh = -4%&12%&11%

CC(C)c1ccc(-n2c(O)c(/C=N/N3CCOCC3)c(=O)[nH]c2=S)cc1
- VDR inh = 18%

CC1OC(=O)C(C(C)C)NC(=O)C(C(C)C)OC(=O)C(C(C)C)NC(=O)C(C)OC(=O)C(C(C)C)NC(=O)C(C(C)C)OC(=O)C(C(C)C)NC(=O)C(C)OC(=O)C(C(C)C)NC(=O)C(C(C)C)OC(=O)C(C(C)C)NC1=O (stereo not given)
- VDR inh = 6%&2%

COc1ccc(/C=C/C(=O)NC(=S)N2C[C@H]3C[C@H](C2)c2cccc(=O)n2C3)cc1OC
- VDR inh = -7%

CCN(CC)CCCN=Cc1c(O)n(CCc2ccc(F)cc2)c(=O)[nH]c1=O
- VDR inh = -2%

CN1CCN(CC#CCOc2ccc(Cl)cc2)CC1
- VDR inh = 1%

COc1ccc(CN2CCN(c3ccccc3F)CC2)cc1O
- VDR inh = -5%

CC(=O)O[C@H]1C(=O)[C@@]2(C)C([C@H](OC(=O)c3ccccc3)[C@]3(O)C[C@H](OC(=O)[C@H](O)[C@@H](NC(=O)c4ccccc4)c4ccccc4)C(C)=C1C3(C)C)[C@]1(OC(C)=O)CO[C@@H]1C[C@@H]2OC(=O)[C@H](C)NC(=O)c1ccc(-c2c3ccc(=O)cc-3oc3cc(O)ccc23)c(C(=O)O)c1 (stereo not given in full)
- VDR inh = -14%

Cc1ccc(N2C(=O)NC(=O)/C(=C/C=C/c3ccco3)C2=O)cc1
- VDR inh = 25µM*

C=CCn1c(O)c(C(C)=Nc2ccc(C(=O)OCC)cc2)c(=O)[nH]c1=O
- VDR inh = 2%

COC1=C[C@]23CCCN2CCc2cc4c(cc2[C@@H]3[C@@H]1O)OCO4
- VDR inh = -4%

CN1CCC(N(C)Cc2cccnc2)CC1
- VDR inh = -5%

Cc1cc(C)n2nc(C)[n+](C)c2n1
- VDR inh = 13%

CN(C)CC1CSCCC1(O)c1ccccc1Cl (stereo not given)
- VDR inh = 0%

Cn1c(O)c(/C=N/N2CCOCC2)c(=O)n(-c2ccccc2)c1=S
- VDR inh = -17%

CCCC1(CCO)C(=O)NC(=S)NC1=O
- VDR inh = 2%

Cc1ccc(N2C(=O)NC(=O)C3(Cc4ccccc4N4CCN(c5ccccc5)CC43)C2=O)cc1 (stereo not given)
- VDR inh = -1%

O=c1[nH]c(=O)n(-c2ccccc2F)c(O)c1C=NCCC1=CCCCC1
- VDR inh = 6%

Clc1ccc(N2CCNCC2)nn1
- VDR inh = -5%

Clc1cccc(CNCCc2c[nH]c3ccccc23)c1
- VDR inh = -15%

Next part, overlapping the part above by 3 compounds.
O=c1[nH]c(=O)n(-c2ccccc2F)c(O)c1C=NCCC1=CCCCC1
- VDR inh = 6%

Clc1ccc(N2CCNCC2)nn1
- VDR inh = -5%

Clc1cccc(CNCCc2c[nH]c3ccccc23)c1
- VDR inh = -15%

COc1cc2c(cc1O)CC1c3c(cc(O)c(OC)c3-2)CCN1C (stereo not given)
- VDR inh = 2%

CCC1([N+](=O)[O-])COP(=O)(NCc2cccnc2)OC1 (stereo not given)
- VDR inh = 2%

O=C(Nc1ccc(F)cc1)c1c(O)c2c(n(Cc3ccccc3)c1=O)CCCC2
- VDR inh = -11%

Cn1cc(C(=O)Cc2ccccc2)c2ccccc21
- VDR inh = ?

[Cl][Pt+2][Cl].[NH-]C1CCCCC1[NH-] (stereo not given)
- VDR inh = 50µM*

CC(C)[C@H]1C(=O)N2CCC[C@H]2[C@]2(O)O[C@](NC(=O)[C@@H]3C=C4c5cccc6[nH]cc(c56)C[C@H]4N(C)C3)(C(C)C)C(=O)N12
- VDR inh = -34%

COc1cc(OC)c(OC)cc1CN1CCN(C(=O)COc2ccc3ccccc3c2)CC1
- VDR inh = -3%

CN1CCN(/N=C/c2c(O)n(CCC3=CCCCC3)c(=S)[nH]c2=O)CC1
- VDR inh = -4%

O=C(O)C1C2c3ccccc3C(c3ccccc32)C1C(=O)Nc1ccccc1 (stereo not given)
- VDR inh = -10%

CCC(=NCCc1ccccc1)c1c(O)[nH]c(=O)[nH]c1=O
- VDR inh = -3%

O=c1[nH]c(O)c(C=NC2CCCCC2)c(=O)[nH]1
- VDR inh = -9%

Cc1ccc(NC(=O)CN2C(=O)CN=C(c3ccccc3)c3ccccc32)cc1
- VDR inh = 20%

C[Se]C[C@H](N)C(=O)O
- VDR inh = 7%

CC1=NCCc2c1[nH]c1ccccc21
- VDR inh = -2%

CC(C)(C)C1(CCO)C(=O)NC(=S)NC1=O
- VDR inh = -1%

CO/C1=C\C(C)=C\[C@@H](C)[C@@H](O)[C@@H](C)C/C(C)=C/C=C/[C@H](OC)[C@@H]([C@@H](C)[C@@H](O)[C@H](C)[C@@]2(O)C[C@@H](O)[C@H](C)C(C(C)C)O2)OC1=O (stereo not given in full)
- VDR inh = ?

O=c1[nH]c(=O)n(CCC2=CCCCC2)c(O)c1C=NCCCn1ccnc1
- VDR inh = -6%

Cc1ccc(-n2c(/C=C\c3ccc(F)c(F)c3)nc3ccccc3c2=O)c(C)c1
- VDR inh = 11%

NCC(CC(=O)O)C1CCCCC1 (stereo not given)
- VDR inh = 0%

CC(C)Oc1ccc(CC2(CCc3ccncc3)C(=O)NC(=O)NC2=O)cc1
- VDR inh = 3%

COc1ccc(-n2c(O)c(C(C)=Nc3ccc4c(c3)CCC4)c(=O)[nH]c2=O)cc1
- VDR inh = -13%

CCOC(=O)c1cc(C(O)(C(=O)OC)C(F)(F)F)c(/N=C/N(C)C)o1 (stereo not given)
- VDR inh = -3%

COc1ccc(C(=O)C2CCCN(Cc3cnc(C)s3)C2)c(OC)c1 (stereo not given)
- VDR inh = 18%

COc1cccc(C(=O)C2CN(C)CC2c2ccc(Cl)cc2)c1 (stereo not given)
- VDR inh = -5%

C[C@]1(O)CCC2C3CC[C@H]4C[C@@H](OC(=O)CNC(=O)CN)CC[C@]4(C)C3CC[C@@]21C (stereo not given in full)
- VDR inh = -1%

CCN(CC)C(=O)c1ccc(NC(=O)c2cccc(F)c2)cc1
- VDR inh = -10%

CCCCN1C(=O)/C(=C\c2ccco2)C(=O)N(CCc2ccccc2)C1=O
- VDR inh = 148%[activator]

CN1[C@H](CC(=O)c2ccccc2)CCC[C@H]1C[C@H](O)c1ccccc1
- VDR inh = 8%

CN[C@H](C)[C@H](O)c1ccccc1
- VDR inh = 6%

CC(NCc1ccccc1Cl)C(O)c1ccccc1 (stereo not given)
- VDR inh = 1%

Of the compounds above, these contain a COOH group.
CC(=O)O[C@H]1C(=O)[C@@]2(C)C([C@H](OC(=O)c3ccccc3)[C@]3(O)C[C@H](OC(=O)[C@H](O)[C@@H](NC(=O)c4ccccc4)c4ccccc4)C(C)=C1C3(C)C)[C@]1(OC(C)=O)CO[C@@H]1C[C@@H]2OC(=O)[C@H](C)NC(=O)c1ccc(-c2c3ccc(=O)cc-3oc3cc(O)ccc23)c(C(=O)O)c1 (stereo not given in full)
- VDR inh = -14%

O=C(O)C1C2c3ccccc3C(c3ccccc32)C1C(=O)Nc1ccccc1 (stereo not given)
- VDR inh = -10%

C[Se]C[C@H](N)C(=O)O
- VDR inh = 7%

NCC(CC(=O)O)C1CCCCC1 (stereo not given)
- VDR inh = 0%

Returning to the listing, repeating the four entries before the break.
CCCCN1C(=O)/C(=C\c2ccco2)C(=O)N(CCc2ccccc2)C1=O
- VDR inh = 148%[activator]

CN1[C@H](CC(=O)c2ccccc2)CCC[C@H]1C[C@H](O)c1ccccc1
- VDR inh = 8%

CN[C@H](C)[C@H](O)c1ccccc1
- VDR inh = 6%

CC(NCc1ccccc1Cl)C(O)c1ccccc1 (stereo not given)
- VDR inh = 1%

CC(C(=O)c1ccccc1)N1C(=O)c2ccccc2C1=O (stereo not given)
- VDR inh = -5%

N[C@@]1(C(=O)O)CC[C@@H](C(=O)O)C1
- VDR inh = -6%&-19%

CC(C)Oc1cccc(C(=O)C2CCCN(C3CCOCC3)C2)c1 (stereo not given)
- VDR inh = -11%

Cc1nn(-c2ccccc2)c(C)c1NC(=O)COC(=O)Cc1ccccc1
- VDR inh = -19%

COCCOC(=O)c1c(C)n(C)c2ccc(OC(=O)N(C)C)cc12
- VDR inh = 22%

O=[N+]([O-])c1cccc(NP(=O)(Oc2ccccc2)Oc2ccccc2)c1
- VDR inh = -7%

Cc1cc(/C=C2\C(=O)NC(=O)N(c3ccc(Cl)cc3)C2=O)c(C)n1C
- VDR inh = -6%

O=C(c1cccn2c(=O)c3ccccc3nc12)N1CCC2(CC1)OCCO2
- VDR inh = 13%

Cc1nn(Cc2ccccc2)c(C)c1C(=O)OCC(=O)NC1CCS(=O)(=O)C1 (stereo not given)
- VDR inh = 10%

Cc1ccc(C(=O)N/C(=C\Cl)P(=O)(c2ccccc2)c2ccccc2)cc1
- VDR inh = -11%

OC1(CN2CCOCC2)C2CC3CC(C2)CC1C3 (stereo not given)
- VDR inh = 1%

Nc1c(C(=O)Nc2ccc(Cl)c(C(F)(F)F)c2)sc2nc3c(cc12)N1CCC3CC1
- VDR inh = 2%

CC(=O)OC1N=C(c2ccccc2)c2cc(Br)ccc2NC1=O (stereo not given)
- VDR inh = -23%

O=C(NC1CN2CCC1CC2)c1cccc(Cl)c1 (stereo not given)
- VDR inh = -15%

CC(C)CCC1(CCc2ccncc2)C(=O)NC(=O)NC1=O
- VDR inh = -10%

Another view of some results above:
Structure,VDR inh
Cc1nn(-c2ccccc2)c(C)c1NC(=O)COC(=O)Cc1ccccc1,-19%
O=C(NC1CN2CCC1CC2)c1cccc(Cl)c1 (stereo not given),-15%
Nc1c(C(=O)Nc2ccc(Cl)c(C(F)(F)F)c2)sc2nc3c(cc12)N1CCC3CC1,2%
O=C(c1cccn2c(=O)c3ccccc3nc12)N1CCC2(CC1)OCCO2,13%

Next section:
COC(=O)C1=C(c2cccc(OC)c2OC)C[C@@H]2CC[C@H]1N2C(=O)NCc1ccccc1
- VDR inh = -16%

Brc1ccccc1
- VDR inh = -12%

CCCCCn1c(=O)c(C(=O)Nc2nc3ccccc3[nH]2)c(O)c2ccccc21
- VDR inh = -16%

O=C1C2CCCN2C(c2ccc(Cl)c(Cl)c2)N1c1ccccn1 (stereo not given)
- VDR inh = -14%

Cc1cccc(OP(N)(=O)Oc2cccc(C)c2)c1
- VDR inh = -21%

CCOC(=O)c1c(C)n(CCOC)c2ccc(O)cc12
- VDR inh = 3%

CN[C@@H]1C[C@@]2(C)O[C@@H]([C@@H]1OC)n1c3ccccc3c3c4c(c5c6ccccc6n2c5c31)C(=O)NC4
- VDR inh = -1%

Cc1cc(C(=O)O)c(C)n1C1CC1
- VDR inh = 4%

COc1ccc(N=Cc2c(O)n(Cc3ccccc3)c(=S)[nH]c2=O)c(OC)c1
- VDR inh = -10%

CCOC(=O)[C@]12Cc3cc(OC)ccc3[C@H]1N(Cc1ccccc1)C(=O)c1cc(F)c(F)cc12
- VDR inh = -7%

CCC1(CC)C(=O)NC(=O)N(c2ccccc2)C1=O
- VDR inh = -5%

CN(C)CCO
- VDR inh = 3%

Cc1ccsc1CNCCc1ccccc1F
- VDR inh = -6%

C[N+](C)(C)CCOC(=O)C(O)(c1ccccc1)c1ccccc1
- VDR inh = 8%

C[C@](N)(CCP(=O)(O)O)C(=O)O
- VDR inh = 5%&-2%&11%

COc1cccc(CNCCc2cccc(F)c2)c1OC
- VDR inh = 4%

O=S(=O)(O)c1cc(N=C=S)ccc1/C=C/c1ccc(N=C=S)cc1S(=O)(=O)O
- VDR inh = ?

C[C@]12CCC3C(CCC4=C(Cl)C(=O)CC[C@@]43C)C1CCC2O (stereo not given in full)
- VDR inh = ?

Cc1cccc(NC(=O)OC2CN3CCC2CC3)c1 (stereo not given)
- VDR inh = -5%

OC(Cn1c2ccccc2c2ccccc21)C[n+]1cccc2ccccc21 (stereo not given)
- VDR inh = 2%

O=[N+]([O-])c1cc(-n2cnnn2)c(O)c([N+](=O)[O-])c1
- VDR inh = -17%

O=C1/C(=C\c2cccnc2)N2CCC1CC2
- VDR inh = -3%

Cc1cccc(OC(C)C(=O)NCC2(N(C)C)CCCCC2)c1C (stereo not given)
- VDR inh = 20%

COc1ccc2c(c1O)-c1cccc3c1[C@@H](C2)N(C)CC3
- VDR inh = -12%&7%
